PrP 5UTR inh: inhibition of PrP 5' UTR reporter expression. inhibition, % (test concentration not listed). hit rate 0.35% among 340,000. AID 488862, 2010. cell-based PrP 5' UTR mRNA reporter, plate reader;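 active means every replicate at 50% or more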;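 further: 0 = median of the neutral control wells; tested in H4 reporter cells; numbers are from one replicate; inactives centre near -14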
Sa ugtP lethal: growth inhibition of ugtP-null S. aureus, primary screen, RN4220 ugtP deletion, OD600 | growth inhibition, % (no concentration beside the values) | hit rate 0.54% among 330,000 | 16 h; some inactives read as strong as hits;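 active means z-score under -3 and OD600 up to 0.15 on both plates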;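 further: plate controls were untreated wells for no effect and antibiotic for full effect; wells of about 80 µL received 100 nL stock; the first replicate is given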
BJeLR viability: MLPCN primary cell-based screen for lethality selective to Ras in HRASV12 cells; inhibition, % (concentration not given with the values); hit rate 0.17% among 300,000; BJeLR (HRASV12) viability, CellTiter-Glo ATP luminescence, 48 h; reference of the scale not given here; AID 1554, 2009;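 active means replicate mean above 50%; inconclusive means above 50% but judged a plate artefact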;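 further: 50 nL library stock added to about 25 µL; numbers are from one replicate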
Mtb hypoxia inh: PubChem AID 1159583. M. tuberculosis hypoxia-regulated fluorescent reporter, fluorescence. fluorescence inhibition, % (no concentration beside the values). hit rate 0.1% among 300,000;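 active means 35 to 45% if threefold the growth effect, above 45% if 1.5-fold the growth effect; inactive means the rest, general growth blockers included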;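 further: wells of about 50 µL received 100 nL stock; 0% = vehicle wells and 100% = reference inhibitor wells; whole bacteria with a GFP reporter of the hypoxia response; strong numbers were not always called active; many hits fall short of the cut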
Bead autofluor: flagged as autofluorescent in microsphere protease counterscreen. hit rate 3.1% among 360,000. compound autofluorescence counterscreen, microsphere flow cytometry; active compounds read high. AID 624483. fluorescence intensity (concentration not given with the values);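 active means at least 3 SD above the mean of all compounds, about 16000 in these data; inconclusive means too few beads counted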;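 further: 100 nL of 1 mM stock went into each well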
Sa RN4220 lethal: growth inhibition of S. aureus RN4220, primary screen, OD600; 16 h; inhibition, % (test concentration not listed); hit rate 0.33% among 330,000;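 active means z-score of -3 or lower and OD600 up to 0.18 on both plates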;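 further: plate controls were untreated cells for no effect and reference antibiotic for full effect; stock transfer was 100 nL into about 80 µL; one replicate is shown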
Mtb hypoxia inh growth: second read-out of Mtb hypoxia inh, no call of its own (marks repeat the call); growth inhibition, %; measured here: M. tuberculosis growth (absorbance);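 0% = vehicle and 100% = reference antibiotic; read after six days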
Starred values were filed as active, the others as inactive; u = inconclusive; x = no result given. The order is random; about 4% have a hit in one of these screens.

SMILES	PrP 5UTR inh	Sa ugtP lethal	BJeLR viability	Mtb hypoxia inh	Mtb hypoxia inh growth	Bead autofluor	Sa RN4220 lethal
CC(C)(C)c1ccc(C(=O)NNc2ccc(F)cc2F)cc1	-49	2	-2	-4	-1	4364	0.5
COc1ccc(NC(=O)CSCC(=O)Nc2ccccc2C(=O)N2CCCCC2)cc1	-11	-1	x	6	-2	8339	5.4
CC(C)n1c(/N=C/c2ccccc2O)nc2ccccc21	8	x	-8	x	x	3312	x
CCC(C)c1ccccc1NC(=O)C1CCCO1 (configuration not stated)	-6	3	-2	x	x	4678	-1.1
CCc1ccccc1NC(=O)Nc1cc(F)ccc1F	-12	7	6	-1	0	2395	-0.8
CCCNC(=O)c1ccc(N2CC3CC(C2)c2cccc(=O)n2C3)c(NC(=O)Nc2ccc(CC)cc2)c1 (configuration not stated)	-20	5	-3	10	3	5038	0.7
Cc1ccc(NS(=O)(=O)c2cc(C(=O)NCc3ccccn3)ccc2Cl)cc1C	-10	10	-6	4	7	7959	0.7
Cc1ccc(C(=O)NCC#N)cc1	-9	8	-14	1	5	2108	0.4
N#Cc1c(NC(=S)NC(=O)c2ccccc2)sc2c1CCCC2	-28	17	1	0	0	2102	-0.3
COc1ccc(C(=O)Oc2ccc(C(=S)N3CCOCC3)cc2)cc1	-6	11	6	4	9	4757	0.8
CCn1c(=O)cc(OCC(=O)Nc2ccc3c(c2)OCCO3)c2ccccc21	-16	-19	3	-8	-1	19914*	-3.7
O=C(c1ccc2c(c1)OCCO2)N1CCN(c2ccc([N+](=O)[O-])cc2)CC1	x	8	3	9	2	x	3.3
CCOC(=O)C1(C)NC(c2ccc(O)cc2)C2C(=O)N(c3ccccc3)C(=O)C21 (configuration not stated)	-8	4	-6	-1	9	3604	3.4
CC1CCN(c2ccc3c(c2)S(=O)(=O)c2cccc(C(=O)NC4CCCCC4)c2C3=O)CC1	-24	8	x	7	13	4303	2.5
O=C(O)c1ccc(OCC(O)Cn2cnc3ccccc32)cc1 (configuration not stated)	-15	1	1	10	19	4124	1.7
CC(=O)Nc1c(-c2ccc(F)cc2)nc2ccccn12	-9	-5	-6	2	5	4407	9.0
CCOc1cc(/C=N/NC(=O)c2ccc3c(c2)OCCO3)cc(Br)c1O	-19	x	-3	x	x	3622	x
COc1ccc(Cc2nc3ccc(C(=O)N4CCCCC4CCO)cc3o2)cc1 (configuration not stated)	-16	3	-6	3	-4	4405	1.7
COc1cccc(/C=C/C(=O)OCC(=O)Nc2ccccc2Sc2ccccc2)c1	-14	-7	-5	-2	0	2662	2.6
Brc1ccc(-c2csc(-c3ccncc3)n2)cc1	-35	8	6	8	2	2197	8.1
COc1ccccc1NS(=O)(=O)c1cccc(C(=O)N2CCCCCCC2)c1	-13	x	-4	x	x	4255	x
CSc1ccc(CN2CCC(CO)(CCOc3ccccc3)CC2)cc1	3	0	-9	3	10	4239	-0.5
COc1ccccc1-c1noc(-c2ccccc2C(=O)Nc2cccnc2)n1	-2	-4	-15	-9	-1	22521*	1.6
Cc1ccccc1NC(=O)c1onc2c1CCCC2	-118	3	10	8	2	3516	5.9
CCN(Cc1ccccc1)C(=O)c1ccc2c(=O)n3c(nc2c1)CCC3	4	x	-3	x	x	5939	x
Cc1ccccc1C(=O)Nc1ccccc1N1CCN(C(=O)c2ccccc2)CC1	-21	x	-2	x	x	5713	x
Cc1cccc(C(=O)OCC(=O)N2CCCCCC2)c1O	-34	11	x	3	-4	2885	7.7
CC(C)OCCCNC(=O)C1CCN(S(=O)(=O)N2CCCC2)CC1	-63	9	1	19	3	5167	1.9
CSc1nnc2c(n1)OC(c1ccsc1)N(C(C)=O)c1ccccc1-2 (configuration not stated)	11	7	-4	x	x	3053	-2.1
CC(=O)Nc1ccc(Nc2cc(N3CCOCC3)c3nonc3c2[N+](=O)[O-])cc1	-23	-3	4	-2	-3	3323	-0.9

Retrieved by compound from above, four records:
SMILES	PrP 5UTR inh	Sa ugtP lethal	BJeLR viability	Mtb hypoxia inh	Mtb hypoxia inh growth	Bead autofluor	Sa RN4220 lethal
COc1cccc(/C=C/C(=O)OCC(=O)Nc2ccccc2Sc2ccccc2)c1	-14	-7	-5	-2	0	2662	2.6
COc1ccccc1NS(=O)(=O)c1cccc(C(=O)N2CCCCCCC2)c1	-13	x	-4	x	x	4255	x
CC(=O)Nc1ccc(Nc2cc(N3CCOCC3)c3nonc3c2[N+](=O)[O-])cc1	-23	-3	4	-2	-3	3323	-0.9
Cc1cccc(C(=O)OCC(=O)N2CCCCCC2)c1O	-34	11	x	3	-4	2885	7.7

New compounds follow.
SMILES	PrP 5UTR inh	Sa ugtP lethal	BJeLR viability	Mtb hypoxia inh	Mtb hypoxia inh growth	Bead autofluor	Sa RN4220 lethal
COc1ccc(CCC(=O)Nc2nc(-c3ccncc3)cs2)cc1	x	4	-4	6	9	x	13
Cc1cc(N(C)C)c(C#N)c(N2CCCCC2)n1	-10	9	8	x	x	3733	1.8
CC(C)CN(C(=O)COC(=O)c1nc(Cl)ccc1Cl)C1CCS(=O)(=O)C1 (configuration not stated)	-6	3	4	21	3	4178	2.0
COc1ccc(C(=O)Nc2ccncc2)c(OC)c1	-21	4	-1	-3	-6	2733	0.6
Nc1ccc(C23CC4CC(CC(O)(C4)C2)C3)cc1	8	6	2	x	x	2346	5.8
COc1cc(/C=C2\SC(=S)N(NC(=O)c3ccc(O)c(OC)c3)C2=O)ccc1O	-15	x	-8	x	x	4339	x
CCCc1nc2oc3c(Cl)ncnc3c2c2c1CCCC2	-2	9	-5	10	10	3306	1.3
COc1ccc(CNC(=O)C2CC(C)=C(C)CC2C(=O)O)cc1 (configuration not stated)	-21	9	22	10	8	7894	4.2
CC1CCN(C(=O)c2cc(F)c(F)cc2Cl)CC1	-11	10	-2	x	x	3068	-0.7
O=C(CCn1nc(-c2ccccc2)ccc1=O)N1CCOCC1	-28	9	11	-3	-4	2444	5.1
CC(C)C(O)C1CCN(Cc2nc(-c3cccs3)no2)CC1 (configuration not stated)	-40	3	-4	15	4	4773	3.9
O=C(c1ccc(Cl)cc1Cl)N1CCC(c2nc3c(nnn3Cc3ccco3)c(=O)[nH]2)CC1	-8	32	4	5	4	3024	6.3
C=C(C)[C@@H](O)COc1c2ccoc2cc2oc(=O)ccc12	-6	-5	x	-2	-4	4009	-11
O=C(c1n[nH]c2ccccc12)N1CCOCC1	-23	1	0	-1	-3	2849	-1.8
COc1ccc(NC(=O)Cc2coc3ccc4ccccc4c23)cc1S(=O)(=O)N1CCOCC1	-6	-12	-13	5	4	2352	-2.6
Cc1cc(N2CCCCCC2)nc(-c2ccccc2O)n1	-1	-1	-4	18	1	3270	-7.0
COc1cccc(CC(=O)OCC(=O)NC2(C#N)CCCCC2)c1	-14	3	-2	4	0	u	-0.9
CCOC(=O)c1c(C)[nH]c(C(=O)COC(=O)c2ccc([N+](=O)[O-])o2)c1C	-1	5	x	13	9	3246	7.8
CCn1c(CC(=O)Nc2ccccc2)nnc1SCC(=O)Nc1ccccc1C(=O)OC	-29	-9	-11	10	9	8539	0.5
CCN(C(=S)NCc1ccccc1)c1cccc2ccccc12	-22	5	-2	11	9	4469	5.5
Cc1noc(C)c1NC(=O)N(C)CC1Oc2c(NS(=O)(=O)c3cn(C)cn3)cccc2C(=O)N(C(C)CO)CC1C (configuration not stated)	x	-2	x	-3	6	x	1.8
CCOC(=O)N1CCN(C(=O)CCCn2c(=O)[nH]c3ccccc3c2=O)CC1	-26	-5	-4	3	-8	10032	-3.6
CC1CN(C(=O)CCC(=O)NCc2ccccc2)c2ccccc2O1 (configuration not stated)	-44	-4	10	-1	-2	5603	2.0
Cc1ccc(SCCNCc2ccco2)cc1	1	12	2	-7	-3	3451	4.6
Cc1cc2cc(CN(Cc3ccco3)C(=S)NCC3CCCO3)c(=O)[nH]c2cc1C (configuration not stated)	-11	-9	0	-5	-3	7625	0.0
CCOC(=O)C1(CCOC)CCN(Cc2ccc(COC)o2)CC1	-4	-5	1	-2	14	1885	0.4
COc1cccc(SCc2noc(C(=O)NC(C)C)c2C(=O)O)c1	-15	2	2	-2	8	3611	0.6
Cc1ccc(NC(=S)NCCN2CCOCC2)cc1F	-16	1	6	-3	18	3439	2.5
O=C(Nc1ccccc1)c1ccc(N2CCN(c3ccccc3)CC2)c(S(=O)(=O)N2CCOCC2)c1	-20	10	-3	8	7	13379	3.4
OC(COC1CCCCC1)CN1CCCCC1 (configuration not stated)	3	-2	0	4	-1	4954	-0.5
O=C(COC(=O)Cc1ccc(Cl)cc1)NCc1cccs1	-25	7	x	29*	71*	3385	-0.4
COc1ccc(C(=O)CSc2nnc(NC(=O)C3CC(=O)N(c4ccccc4C)C3)s2)cc1 (configuration not stated)	-28	-5	0	2	-3	9845	2.9
Cc1nc2ccc(S(=O)(=O)NC(C(=O)Nc3nccs3)C(C)C)cc2s1 (configuration not stated)	-15	2	1	x	x	5442	-1.3
COc1ccccc1N1CCN(C(=O)CCc2ccc(S(=O)(=O)NCC(C)C)cc2)CC1	-11	6	-1	x	x	3460	3.8
CC(C(=O)Nc1ccc(N(C)C)cc1)N1C(=O)c2ccccc2S1(=O)=O (configuration not stated)	-14	5	4	-1	-3	5372	1.9
O=C(N[C@H]1CCCCNC1=O)c1cc(COc2ccc(F)cc2F)on1	-34	-3	0	0	-9	5445	-4.6
Cc1cccc(N2C(=O)C3CCCN3C2=S)c1C (configuration not stated)	-3	3	x	4	0	u	4.0
O=C(c1ccc(-n2cccc2)cc1)N1CCOCC1	-16	1	3	16	10	3881	1.3
COc1cc(NC(=O)c2cc(-c3ccco3)on2)c(OC)cc1Cl	-5	-2	1	4	7	10868	5.3
C=C1c2ccccc2NC(=S)N1Cc1ccc2c(c1)OCO2	-36	-8	0	8	-1	4549	2.2
OC1CCN(C(=S)Nc2ccc(Nc3ccccc3)cc2)CC1	-34	4	0	6	4	4358	2.6
Cc1cc(C)c2c(=O)[nH]cnc2n1	-8	0	-1	13	3	2496	2.9
CN(Cc1c(C(=O)N2CCc3ccccc3C2)nc2ccc(Cl)cn12)C(C1CC1)C1CC1	-8	-2	4	2	19	4443	0.5
CN1CCN(c2nc3c(c(=O)[nH]c(=O)n3C)n2CC(N)=O)CC1	-24	-3	1	16	6	10740	4.9
COc1ccc(C2Nc3ccccc3C(=O)N2NS(=O)(=O)c2ccc(C)cc2)cc1 (configuration not stated)	0	-1	16	7	1	2545	5.3
CCOC(=O)C1CCN(C(=O)C2CCN(S(=O)(=O)c3cc(Cl)ccc3OCC)CC2)CC1	-3	6	11	0	-2	5014	0.2
CC1CCN(C(=O)c2cc3c(=O)n4ccccc4nc3s2)CC1	-30	11	-4	3	1	5521	5.1
Cc1cc(C)c2c(n1)SCC(=O)N2CC(=O)Nc1c(C)cccc1C	-27	2	-9	x	x	6227	1.8
CCC1(CC)Cc2ccccc2-c2nc(NN)[nH]c(=O)c21	-13	13	17	10	0	4439	12
Cc1nc(-c2ccccc2)sc1C(=O)NN	-12	-18	-6	3	3	4706	-0.5
COc1cc(/C=N/NC(=O)c2cccnc2)ccc1OCC(=O)N1CCOCC1	-27	x	-10	x	x	2624	x
CCCC(=O)NC(C)c1nc2ccccc2[nH]1 (configuration not stated)	-22	17	-1	4	0	5623	13
Cc1cc(OCC(=O)NCCCN2CCCC2=O)c2c(C)cc(=O)oc2c1	2	2	8	1	-3	3922	5.6
CC(=O)COc1ccc2c(-c3cccc([N+](=O)[O-])c3)cc(=O)oc2c1	-6	13	1	0	9	2898	5.7
COc1ccc(Cn2nc(C)cc2C)cc1OC	-7	4	1	4	1	4269	4.5
CCC(=O)Nc1cc2c(cc1Cl)-c1ccccc1C2	-74	0	x	5	15	3847	4.6
CCn1c(=O)c2cc(C(=O)Nc3cccc(C(C)=O)c3)sc2c2ccccc21	-18	0	11	9	-2	4380	4.3
CC(C)CSc1nc2c(=O)[nH][nH]c(=O)c2n1Cc1ccccc1	-6	-2	-1	x	x	3527	1.0
O=C(COc1ccccc1)N1CCN=C1SCc1cccnc1	9	0	4	x	x	2931	-0.5

As entered above.
Result for CCn1c(=O)cc(OCC(=O)Nc2ccc3c(c2)OCCO3)c2ccccc21 in Bead autofluor: 19914*
Result for Cc1cc(C)c2c(=O)[nH]cnc2n1 in BJeLR viability: -1

Screening data deposited in PubChem by several laboratories.
